Screens as filed in PubChem BioAssay.
PINK1 modulator = A Quantitative High throughput Screen to Identify Chemical Modulators of PINK1 Expression; Potency, µM (highest dose often 76.6 µM), for inactives: at the highest dose activation (PINK1 increase), usual class: activators; 410,000 tested, 0.2% active; PINK1 immunofluorescence, high-content cytometry, 24 h; active = well fitted activation curve with a large enough effect; inconclusive = small, poorly fitted or top-dose-only effect; inactive = flat fitted curve, though single readings scatter; cell line not stated here;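 also: potency is read from the fitted curve at half-maximal effect; % of control where 0% means no effect; nearly all actives have a fitted effect of over 65% in size; a mitochondrial uncoupler was the plate control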
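A stable cell line was treated with compounds at 5 concentrations for 24 hours, with CCCP as control. PINK1 levels and mitochondrial localization were measured by immunofluorescence with mitochondrial, cell and nuclear markers after fixation, read by laser-scanning cytometry.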
TRPML1 agonist = qHTS for Agonists of the Human Mucolipin Transient Receptor Potential 1 (TRPML1); Mucolipin-1 (Homo sapiens), Q9GZU1; TRPML1-expressing cells, Ca2+ dye fluorescence, FDSS; host cell line not named in the record; reference of the full effect not given here; activation, % (test concentration not listed); 410,000 tested, 0.12% active; in the data active = activation above about 50%; inconclusive = about 30% to 50%; inactive = below about 30%; also: 0% is about no effect; the text of the record puts the active cut at 80%
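Kinetic FDSS Ca2+ read in Tet-induced TRPML1-DL cells (ABD Ca8 dye plus quencher, 45-90 min RT loading): baseline, then compound, then 110 s agonist window; EC80 agonist 54-4 at 4uM final added afterwards for a 110 s antagonist window.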
D2 agonist = Beta-Arrestin HTS for Positive Allosteric Modulators of the Human D2 Dopamine Receptor: Agonists; activation, % (test concentration not listed); 360,000 tested, 0.084% active; DiscoveRx PathHunter D2 beta-arrestin, luminescence, 90 min; 100% = 57 uM dopamine signal; D(2) dopamine receptor (Homo sapiens), P14416; in the data active = activation above about 40%; inconclusive = about 15% to 40%; inactive = below about 15%; also: compound concentration not given in the record; the text of the record calls up to 30% inactive
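Agonist mode: compounds alone added to overnight-plated D2 PathHunter cells for 90 min at 37 C, with 57 uM final dopamine (EC100) defining full response. Beta-arrestin recruitment detected by chemiluminescent reagent, read after 1 h at ambient temperature.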
CtBP-E1A blk = qHTS Assay for Inhibitors of the CtBP/E1A Interaction; AlphaScreen GST-E1A/His-CtBP binding, 1536-well; active compounds read low; control for the full effect not named in the record; activity change, % (no concentration beside the values); 340,000 tested, 0.49% active; in the data active means activity change below about -65%; inconclusive means about -30% to -65%; inactive means above about -30%; also: % is scaled to controls: 0 for no effect and ±100 for the full control effect
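Homogeneous bead-based format: GST-tagged E1A captured on glutathione donor beads, His-tagged CtBP on nickel acceptor beads; compounds precede bead addition by 2 h at 37 °C.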
TRPML1 inh = qHTS for Inhibitors of the Human Mucolipin Transient Receptor Potential 1 (TRPML1) | 390,000 tested, 0.02% active | TRPML1-inducible cells, Ca2+ dye fluorescence, FDSS; active compounds read low; inhibition of EC80 agonist-evoked calcium signal | activity change, negative = inhibition, % (concentration not given with the values) | AID 624415, 2012; in the data active means activity change below about -50%; inconclusive means about -30% to -50%; inactive means above about -30%;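 also: stimulus is agonist 54-4 at its EC80 concentration; % is scaled to controls: 0 for no effect and ±100 for the full control effect; the text of the record puts the active cut at -80%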
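Calcium fluorescence in TRPML1-DL cells induced overnight with Tet: a 110 s read after compound pin addition, then a 110 s antagonist read after challenge with 54-4 at 4 uM final (EC80).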
Six1-Eya2 blk = qHTS Assay for Inhibitors of the Six1/Eya2 Interaction. Homeobox protein SIX1 (Homo sapiens) + Protein phosphatase EYA2 (Homo sapiens), …. activity change, % (no concentration beside the values). 360,000 tested, 0.56% active. AlphaScreen GST-Six1/His-Eya2 binding, biochemical; active compounds read low; control for the full effect not named in the record; in the data active = activity change below about -65%; inconclusive = about -30% to -65%; inactive = above about -30%; also: % is scaled to controls: 0 for no effect and ±100 for the full control effect
Target sequence (O00167 whole entry, looked up): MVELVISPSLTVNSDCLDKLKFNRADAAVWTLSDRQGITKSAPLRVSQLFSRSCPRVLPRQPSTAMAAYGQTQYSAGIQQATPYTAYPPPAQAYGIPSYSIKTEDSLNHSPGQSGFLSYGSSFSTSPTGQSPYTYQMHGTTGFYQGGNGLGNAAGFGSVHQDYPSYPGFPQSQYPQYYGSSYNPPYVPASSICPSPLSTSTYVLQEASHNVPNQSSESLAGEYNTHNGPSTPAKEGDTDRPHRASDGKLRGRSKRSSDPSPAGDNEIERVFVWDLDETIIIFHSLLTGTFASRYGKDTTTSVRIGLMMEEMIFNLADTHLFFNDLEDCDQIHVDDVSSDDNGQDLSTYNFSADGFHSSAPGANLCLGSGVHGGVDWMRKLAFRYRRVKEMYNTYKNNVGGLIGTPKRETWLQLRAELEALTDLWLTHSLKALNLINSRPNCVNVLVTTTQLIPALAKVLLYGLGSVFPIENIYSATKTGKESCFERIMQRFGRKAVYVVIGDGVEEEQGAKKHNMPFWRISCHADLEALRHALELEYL
Target sequence (Q15475 whole entry, looked up): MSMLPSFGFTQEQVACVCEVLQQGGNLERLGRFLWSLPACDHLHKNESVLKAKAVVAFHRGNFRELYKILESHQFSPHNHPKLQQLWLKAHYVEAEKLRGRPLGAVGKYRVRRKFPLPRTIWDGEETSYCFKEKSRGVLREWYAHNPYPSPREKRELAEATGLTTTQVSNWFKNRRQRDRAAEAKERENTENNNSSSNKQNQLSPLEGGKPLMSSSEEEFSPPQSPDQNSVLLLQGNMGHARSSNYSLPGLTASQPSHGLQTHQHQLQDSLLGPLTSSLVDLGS
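Homogeneous AlphaScreen proximity assay pairing GST-Six1 with His-tagged Eya2 (added as 5X mix: 250 nM and 500 nM) in 50 mM Tris pH 8.0, 300 mM NaCl, 1 mM TCEP. Glutathione donor and nickel acceptor beads; 1 h, 37 °C, dark.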
Numbers without * were called inactive; ? = inconclusive; · = not tested or not shown; [ ] = another dose, or the depositor's remark.

entry	smiles	D2 agonist	Six1-Eya2 blk	PINK1 modulator	TRPML1 inh	CtBP-E1A blk	TRPML1 agonist
1	CC(C)CN(C(=O)COC(=O)/C=C/c1ccccc1)C1CCS(=O)(=O)C1 (stereo unspecified)	2.0	4	-0.3%	-16	-1	0.5
2	COc1cc(Br)cc(C(c2c(C)n(C)n(-c3ccccc3)c2=O)c2c(C)n(C)n(-c3ccccc3)c2=O)c1O	-4.6	2	3.3%	9	6	-0.3
3	Cc1ccc([C@H]2C[C@H](O)[C@@H](n3cc(COC(=O)c4ccccc4)nn3)CN2Cc2cccs2)cc1	-3.5	-7	-0.5%	-10	-4	0.0
4	CCOn1c(=O)c(-c2cc(OC)ccc2OC)[n+]([O-])c2ccccc21	-0.4	-2	6.7%	-18	1	1.0
5	O=C(Nc1cccc(S(=O)(=O)Nc2ccc(Cl)cc2)c1)c1ccc2c(c1)OCCO2	12	-3	?	10	-3	1.0
6	Clc1ccc(-c2nc3ccc(Br)cn3c2Cc2ccccc2)cc1	-11	-5	27%	14	7	-0.3
7	O=C(CS(=O)(=O)c1cn(CC(=O)N2CCOCC2)c2ccccc12)Nc1ccccc1	-3.2	6	1.1%	-1	5	0.0
8	COc1ccc(Cc2nc3ccc(C(=O)N(C)CCCN4CCOCC4)cc3o2)cc1	5.4	-1	-1.0%	0	3	0.5
9	Nc1nnc(SCC(=O)Nc2cccc(S(N)(=O)=O)c2)s1	-4.2	-3	-0.3%	3	5	-0.4
10	Cc1cc(=O)n(Cc2ccccc2)c2c(C)cccc12	-5.0	31	20%	-9	49	1.7
11	CC(C)(C)c1cnnn1-c1ccc(NC(=O)c2ccc(Br)o2)cc1	0.0	-2	4.7%[38.3 µM]	4	5	0.7
12	CCOc1ccc(S(=O)(=O)N2CCCC(C(=O)NC3CC3)C2)cc1Cl (stereo unspecified)	-8.0	18	-0.6%	8	-3	0.1
13	Cc1c(C(=O)N2CCC3(CC2)CC(=O)c2ccccc2O3)cccc1[N+](=O)[O-]	1.4	1	-2.1%	1	-2	1.8
14	N#CCN(CC#N)C(=O)C1c2ccccc2Oc2ccccc21	1.6	6	3.1%	22	2	0.3
15	Cc1ccc(S(=O)(=O)NCc2ccncc2)cc1C	7.2	0	-0.7%	10	0	0.4
16	Cc1cc(C)n2ncc(C(=O)Nc3ccc(Cl)c(Cl)c3)c2n1	-0.8	8	6.5%	21	-8	1.2
17	COc1ccc(S(=O)(=O)N2CCCN(CCC(=O)Nc3cccc(C(F)(F)F)c3)CC2)cc1	-1.1	4	-0.2%	-9	0	-0.2
18	CS(=O)(=O)N1CCC(C(=O)NCCc2ccccc2)CC1	0.8	6	·	-2	9	0.7
19	O=C(O)CCc1n[nH]c(=S)[nH]c1=O	-0.9	-6	4.2%	-7	3	-0.4
20	O=C(CN1C(=O)C2CC=CCC2C1=O)NCc1cccs1 (stereo unspecified)	2.8	14	0.1%	10	·	-0.7
21	O=S(=O)(Cc1nnnn1-c1ccccc1)c1ccc(Cl)cc1	0.8	-1	-1.0%	-1	2	1.7
22	COc1ccc(-n2c(C)cc(/C=C3\SC(=S)NC3=O)c2C)cc1	-2.4	-6	32µM*	-10	·	2.6
23	Cn1nc(-c2ccc(N3CCOCC3)c(NS(=O)(=O)c3ccccc3)c2)c2ccccc2c1=O	1.8	0	?	65	1	1.1
24	COc1ccc(-n2c3c(cc(C(=O)Nc4ccc(C)cc4)c2=O)C(=O)CCC3)cc1	1.0	13	5.8%	30	-3	1.3
25	CCN1CCN(C(=O)N(c2ccccc2)c2ccccc2)CC1	-4.9	21	0.1%	5	-22	-0.8
26	Clc1ccc(-c2nnc(-c3cccc4ccccc34)o2)cc1Cl	-1.3	12	2.0%	-18	1	0.2
27	O=C(CSc1nc2c([nH]c3ccccc32)c(=O)n1-c1ccccc1)N1CCCCC1	·	·	-0.5%	-2	·	-0.8
28	Cc1cccc(N2O[C@H]3C=CC2CCCC3)n1	-0.4	6	-0.6%	-4	4	-0.2
29	COc1ccc(C(CNC(=O)CCNS(=O)(=O)c2ccccc2C(F)(F)F)N2CCOCC2)cc1 (stereo unspecified)	-3.8	-3	1.7%	10	2	0.1
30	CC(=O)c1sc(NC(=O)c2cc(=O)c3ccccc3o2)nc1C	2.8	3	0.2%	11	·	2.9
31	CN1CCN(NC(=O)c2ccc(Br)s2)CC1	-5.3	2	-0.8%	·	16	·
32	CCOC(=O)c1ccc(N2C(=O)c3[nH]nc(-c4ccc(C)cc4)c3C2c2cccs2)cc1 (stereo unspecified)	·	·	1.1%	-18	·	0.2
33	OCC1(Cc2ccccc2)CCCN(Cc2ccc(-c3ccco3)cc2)C1 (stereo unspecified)	-5.9	-18	?	-23	-15	0.3
34	Cc1ccc(NC(=O)c2nc[nH]c2C(=O)N2CCN(C(=O)OC(C)(C)C)CC2)cc1	-2.3	-1	1.9%	26	7	1.9
35	O=C(Nc1ccncc1)Nc1cccc(C(F)(F)F)c1	0.8	0	-0.1%	-13	5	-0.2
36	Cc1ccc(-c2nnc(SCC(=O)NC3CC3)o2)cc1	4.7	-17	3.8%	-1	-20	0.4

Copied from the list.
`CN1CCN(NC(=O)c2ccc(Br)s2)CC1` in CtBP-E1A blk = 16
`COc1ccc(C(CNC(=O)CCNS(=O)(=O)c2ccccc2C(F)(F)F)N2CCOCC2)cc1` (stereo unspecified) in Six1-Eya2 blk = -3
`O=C(CSc1nc2c([nH]c3ccccc32)c(=O)n1-c1ccccc1)N1CCCCC1` in PINK1 modulator = -0.5%
`CCN1CCN(C(=O)N(c2ccccc2)c2ccccc2)CC1` in Six1-Eya2 blk = 21
`CC(=O)c1sc(NC(=O)c2cc(=O)c3ccccc3o2)nc1C` in Six1-Eya2 blk = 3
`Clc1ccc(-c2nnc(-c3cccc4ccccc34)o2)cc1Cl` in TRPML1 inh = -18

Carrying on:
entry	smiles	D2 agonist	Six1-Eya2 blk	PINK1 modulator	TRPML1 inh	CtBP-E1A blk	TRPML1 agonist
37	Cc1ccccc1NC(=O)OCc1ccccc1	4.3	7	4.6%	-11	5	0.5
38	CCOC(=O)N1CCN(c2cc(C)nc3nc(C)nn23)CC1	-1.8	-4	0.0%	3	1	0.5
39	O=C(c1ccccc1)c1c[nH]c(C(=O)NNc2ccccc2)c1	12	-6	-0.6%	-4	·	0.0
40	Cc1ccccc1COc1cccn2c(N(C)C(=O)CCC3CCCC3)c(C)nc12	-5.7	-1	?	·	-4	-0.5
41	CC(C)c1ccc(NC(=O)COc2nnc(-c3cccs3)c(-c3cccs3)n2)cc1	-1.9	-2	-1.7%	6	3	0.9
42	Cc1cccc(-c2ccc3[nH]c4c(c3c2)CCN2C[C@H]3[C@H](C)ON(C)[C@H]3C[C@@H]42)c1	-13	-16	19%	22	-17	1.1
43	N#CC1(NC(=O)COC(=O)c2ccc(Cl)nc2)CCCCC1	-3.5	4	0.9%	-10	2	0.0
44	O=C(Cn1c(=O)n(CCC(=O)N2CCCCC2)c(=O)c2sccc21)NCc1ccccc1	-1.6	0	1.4%	25	2	0.2
45	CC(=O)Nc1cccc(C(=O)N(CCc2ccccc2)Cc2ccccc2)c1	-1.3	3	-1.9%	-13	6	-0.5
46	O=C(Nc1ccccc1Cl)c1ccc([N+](=O)[O-])o1	14	-6	-0.2%	2	-5	-0.6
47	CC1CC(C)CN(CCCNC(=O)c2ccc(CS(=O)(=O)Cc3ccccc3F)o2)C1 (stereo unspecified)	0.0	7	3.8%	-1	1	-0.2
48	COc1ccc(NC(=O)CC2Oc3ccc(C)cc3NC2=O)cc1 (stereo unspecified)	-1.8	3	7.1%	2	6	0.7

Single records, as listed above:
Results for O=C(Nc1ccccc1Cl)c1ccc([N+](=O)[O-])o1 → D2 agonist = 14; Six1-Eya2 blk = -6; PINK1 modulator = -0.2%; TRPML1 inh = 2; CtBP-E1A blk = -5; TRPML1 agonist = -0.6
Results for Cc1ccccc1COc1cccn2c(N(C)C(=O)CCC3CCCC3)c(C)nc12 → D2 agonist = -5.7; Six1-Eya2 blk = -1; PINK1 modulator = ?; TRPML1 inh = ·; CtBP-E1A blk = -4; TRPML1 agonist = -0.5

Carrying on.
entry	smiles	D2 agonist	Six1-Eya2 blk	PINK1 modulator	TRPML1 inh	CtBP-E1A blk	TRPML1 agonist
49	COc1ccc(/C=C/c2nc(S(=O)(=O)c3ccccc3)c(NCCCN(C)C)o2)cc1OC	-1.0	0	-1.1%	-7	19	-0.5
50	CC(NC(=O)NC(=O)c1ccc(Cl)cc1)c1ccccc1 (stereo unspecified)	1.4	-5	9.8%	12	-6	1.9
51	CCOC(=O)C1CCCN(S(=O)(=O)c2cccc3cccnc23)C1 (stereo unspecified)	-2.3	0	-0.6%	-4	4	-0.6
52	CCC(C(=O)N1CCN(c2ccccc2OC)CC1)c1ccccc1 (stereo unspecified)	-0.1	4	-0.9%	-12	5	2.7
53	CCOc1ccc(C(C(=O)NCC2CCCO2)N(C(=O)c2snc(C(N)=O)c2N)c2cccc(F)c2)cc1 (stereo unspecified)	7.3	3	6.1%	5	1	0.6
54	O=C(N/N=C/c1ccc[nH]1)c1ccc2c(c1)OCO2	-2.9	1	1.0%	6	-10	-0.8
55	Cc1ccc(-c2nnn3c2nc(NCCc2ccccc2)c2ccccc23)cc1	·	·	5.6%	-16	·	-0.9
56	CCc1ccc(S(=O)(=O)N2c3ccc(C)cc3C3CN(C)CCC32)cc1 (stereo unspecified)	-0.1	-5	6.0%	14	-10	0.8
57	COc1cc(C(=O)c2ccccc2)c([N+](=O)[O-])cc1OC	-4.0	-2	-0.6%	-5	·	-0.2
58	N#Cc1ccc[n+](CC(=O)c2ccc(Cl)cc2)c1	3.9	14	1.2%	14	-16	2.8
59	O=C(CSc1nc2ccccc2c(=O)n1NC(=O)Cc1ccccc1)NCCc1ccccc1	-1.0	-2	0.7%	5	-1	-0.5
60	Cc1cccc2c1NC(=O)C2=O	-6.0	4	-1.2%	-2	-1	0.1
61	Cc1cc(C(=O)COC(=O)C2=NNC(=O)CC2)c(C)n1CCc1ccccc1	-2.3	-2	-0.4%	2	·	0.9
62	CC1CCCCN1C(=O)CSc1nc2ccccc2nc1Cc1ccccc1 (stereo unspecified)	·	·	1.9%	78	·	1.6
63	COc1cc(C(=O)N2CCN(C(=O)C3CC3)CC2)cc(OC)c1OC	-1.9	5	5.9%	-9	9	-0.3
64	COc1ccccc1NC(=O)C(=O)N1N=C(C(C)C)CC1(O)C(F)(F)F (stereo unspecified)	-1.6	-1	·	-8	-10	0.4
